# Compound activity: PubChem, several laboratories
# Mtb growth – M. tuberculosis H37Rv growth inhibitors, H37Rv strain (AID 1626). M. tuberculosis H37Rv growth inhibition; higher % means a stronger effect. one-dose inhibition, % at 10 µM; IC50 in µM for titrated hits. actives 0.95% (n = 220,000);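 active means confirmed in a dose series; inconclusive means inhibition above 80% but not taken into the dose series; inactive means below 80% or under 30% at every dose of the series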;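 further: bacteria incubated seven days before Alamar blue readout; 0% = bacteria only wells and 100% = bacteria with antibiotic wells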
# Mtb betalactam – beta-lactam sensitization of Mtb H37Rv; M. tuberculosis H37Rv growth with meropenem, percent inhibition; hits of this screen are not shown here; inhibition, % at 25 µM; actives 0.27% (n = 330,000);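 active means about 74% or more and at least 40 points above the plate without the antibiotic, then above 30% in a dose series; inconclusive means first-round hits that could not be retested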;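 further: growth measured after seven days incubation then overnight dye step; 0% = bacteria only wells and 100% = bacteria with antibiotic; twin plates without the antibiotic show which effects depend on it; some results filed as inactive read as strong as hits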
# RecA intein inh – Mtb RecA intein splicing inhibition. inhibition, %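 (about 9 µM by stock and volumes)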. cell-free RecA intein splicing, fluorescence. AID 2221. actives 0.75% (n = 290,000). P9WHJ3; in the data active means inhibition above about 30%; inconclusive means no clear call, values can overlap the other calls;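 further: 0% = vehicle wells and 100% = reference inhibitor control wells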
# Target sequence (P9WHJ3 whole entry, looked up): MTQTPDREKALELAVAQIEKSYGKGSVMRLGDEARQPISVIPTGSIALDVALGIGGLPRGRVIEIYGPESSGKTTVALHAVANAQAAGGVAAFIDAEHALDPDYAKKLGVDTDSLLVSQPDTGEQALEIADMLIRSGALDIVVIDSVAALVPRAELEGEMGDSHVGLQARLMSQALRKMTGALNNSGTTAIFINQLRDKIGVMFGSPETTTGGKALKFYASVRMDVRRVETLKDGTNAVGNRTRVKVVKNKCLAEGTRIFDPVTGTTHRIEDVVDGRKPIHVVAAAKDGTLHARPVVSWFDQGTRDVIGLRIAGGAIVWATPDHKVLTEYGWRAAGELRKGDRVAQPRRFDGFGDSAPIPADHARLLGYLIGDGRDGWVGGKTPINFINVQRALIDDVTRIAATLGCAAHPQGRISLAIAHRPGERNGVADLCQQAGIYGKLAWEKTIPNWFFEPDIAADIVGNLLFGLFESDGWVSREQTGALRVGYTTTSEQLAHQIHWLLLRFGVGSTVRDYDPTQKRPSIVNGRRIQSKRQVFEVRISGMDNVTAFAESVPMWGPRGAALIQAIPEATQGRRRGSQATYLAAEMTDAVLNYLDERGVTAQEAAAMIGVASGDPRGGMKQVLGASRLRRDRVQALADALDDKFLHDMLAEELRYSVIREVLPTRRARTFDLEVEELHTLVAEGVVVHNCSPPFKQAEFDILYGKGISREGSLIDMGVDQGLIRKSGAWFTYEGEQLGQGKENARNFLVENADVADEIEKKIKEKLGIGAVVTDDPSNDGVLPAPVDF
# Arbovirus inh – antivirals against arbovirus infection; arbovirus infection cell-based antiviral screen; inhibition, % at 10 µM; actives 0.37% (n = 200,000);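 active means inhibition from about 30%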;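 further: bluetongue infection of BSR cells; cell survival read as ATP light after 72 h; 0% = infected wells without compound and 100% = uninfected wells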
# YopH inh – YopH (Yersinia) phosphatase inhibition | inhibition, %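 (about 10 µM by stock and volumes)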 | fluorescence Ex485/Em525 | actives 0.16% (n = 140,000);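 active means inhibition of 50% or more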;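 further: controls were vehicle for no effect and minimum signal wells for full effect; inactives centre near -20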
# Arbovirus inh repeat – recorded beside Arbovirus inh, whose call it bears; inhibition, %; measured here: 10K subset replicate screen; many hits read low in the repeat;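 first of two repeat runs on a subset; 0% = infected and 100% = uninfected wells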
# The depositor's hits bear a star; u = inconclusive; x = not tested or not shown.
SMILES,Mtb growth,Mtb betalactam,RecA intein inh,Arbovirus inh,YopH inh,others
COc1ccc(C)cc1NC(=O)c1ccccc1NS(=O)(=O)c1ccc(Cl)s1,4.1%,-6.8,14.2,-9.7,x,
N#CC1=C(S)N(c2ccccc2)C2(CCCCC2)NC1=O,-2.3%,-2.3,-1.5,-2.2,-20.1,
CC(C)(C)c1cc(CCC(=O)NNC(=S)NC(=O)c2ccccc2)cc(C(C)(C)C)c1O,8.2%,13.5,-42.2,-26.9,-3.3,
O=C(NCCc1ccc(Cl)cc1)c1ccc(Br)s1,x,12.8,0.9,x,x,
COC(=O)c1ccc(NC(=O)C(C)Oc2ccccc2)cc1 (centres undefined),-1.3%,7.4,-5.2,3.2,-20.4,
CCOC(=O)c1c(CC(C)C)csc1NC(=O)COC(=O)c1cc(OC)c(OC)cc1[N+](=O)[O-],11.6%,-0.6,0.5,-8.5,-22.8,
S=c1[nH]ncn1NCc1cccc(Br)c1,x,-17.2,-0.8,x,x,
Cc1nnc(SCC(=O)Nc2cc(S(=O)(=O)N3CCCC3)ccc2Cl)s1,10.0%,-3.8,-1.0,x,x,
CC(C)Oc1cccc(-c2cc(C(=O)NC(=S)N(C)c3ccccc3C(=O)O)c3ccccc3n2)c1,10.0%,11.1,5.0,3.6,-18.4,
COc1ccc(N2CCN(S(=O)(=O)CCNC(=O)C(C)Oc3ccccc3)CC2)cc1 (centres undefined),x,-3.2,-0.4,x,x,
Cc1ccc(C(C)C)c(O)c1,-4.2%,-8.7,0.6,x,x,
COC(=O)C1=C(O)/C(=C\c2ccc(CNC(=O)C(=O)Nc3ccc(C)c(C)c3)o2)N=C1C,1.8%,-0.1,0.4,-10.4,-7.7,
CCCC(=O)Nc1ccc2c(c1)nc(CCN1CCN(c3ccccn3)CC1)n2C,x,-2.7,-2.3,x,x,
Cn1nc(Cc2n[nH]c(=S)n2C)c2ccccc2c1=O,-6.4%,-0.7,-0.1,x,x,
Cc1cccn2c(=O)nc(SCC(=O)NCc3ccco3)nc12,x,-3.9,0.6,x,x,
CC(C)CN(C(=O)COC(=O)CCC(=O)c1ccc(Cl)cc1)c1c(N)n(Cc2ccccc2)c(=O)[nH]c1=O,x,9.2,0.9,x,x,
CCCCCn1c(CN2CCN(c3cccc(Cl)c3)CC2)nc2c1c(=O)[nH]c(=O)n2C,30.7%,96.8,6.4,4.0,-7.2,
O=C(CCNS(=O)(=O)c1ccc2[nH]c(=O)oc2c1)Nc1cccc(Br)c1,x,1.4,-3.9,x,x,
O=C(O)CCCCCNC(=O)c1ccccc1Br,-1.5%,-2.6,-2.2,4.0,-146.1,
O=C(NCCN1CCCC1=O)C1CCC(=O)N(CCc2cccc(F)c2)C1 (centres undefined),x,-3.0,0.8,x,x,
CN(C)S(=O)(=O)c1ccc(C(=O)NCc2nnc(SCC(=O)Nc3ccc(F)cc3)n2-c2ccc(F)cc2)cc1,4.6%,6.5,0.6,2.3,-19.7,
COc1ccc(-c2noc(N3CCC(C(=O)Nc4ccccc4OC)CC3)n2)cc1,x,6.6,-5.6,x,x,
O=C(Cn1cnc2ccc(Br)cc2c1=O)c1cccs1,-5.2%,-10.1,-0.4,-14.2,-26.2,
O=C(Cn1cnc2ccccc2c1=O)c1cccs1,-0.2%,-4.0,1.4,-2.2,-2.8,
O=C(NC1CCCc2ccccc21)c1cccnc1 (centres undefined),6.8%,-2.8,0.4,0.8,-11.6,Arbovirus inh repeat=2.0

# Additional structures:
SMILES,Mtb growth,Mtb betalactam,RecA intein inh,Arbovirus inh,YopH inh,others
c1ccc(SCc2nc3ccccc3[nH]2)cc1,-4.5%,2.5,x,7.9,-6.0,
O=C(Cn1c(=O)c2cccn2c2ccc(F)cc21)NCCCN1CCN(c2ccccc2F)CC1,x,5.1,0.5,x,x,
CN(C)c1ccc(/C=N/NC(=O)CCc2c[nH]c3ccccc23)cc1,5.4%,2.1,-0.2,-11.9,x,
CN(C)CCCN=Cc1c(O)n(Cc2ccc3c(c2)OCO3)c(=O)c2ccccc12,0.5%,-6.1,0.8,-17.0,x,
Cc1ccc(-c2nc(S(=O)(=O)c3ccc(F)cc3)c(SCC(=O)NCC3CCCO3)o2)cc1 (centres undefined),-10.3%,2.5,0.8,7.0,-34.1,Arbovirus inh repeat=1.8
COc1ccc(NC(=O)CCC(=O)c2ccc(C(C)C)cc2)cc1,x,-4.5,-0.9,x,x,
COc1ccccc1N1C(=NC(=O)CCc2ccccc2)SC2CS(=O)(=O)CC21 (centres undefined),x,-2.1,0.6,x,x,
CN1C(=O)c2ccccc2Sc2ccc(C(=O)N3CCC4(CC3)OCCO4)cc21,x,-2.6,0.1,3.8,-13.9,
COc1ccc(/C=C/C(=O)NC(=S)NNC(=O)Cc2cccs2)cc1,x,6.8,-2.7,-33.0,-7.6,
Cc1ccc(OP(N)(=O)Oc2ccc(C)cc2)cc1,4.0%,6.5,2.1,8.1,x,
CCOC(=O)CCc1c(C)nc(SCC(=O)O)c(C#N)c1C,-2.1%,-0.2,3.9,-3.0,-26.0,
CCC[C@@H](CNC)NC[C@H](Cc1ccccc1)NCCCCc1ccccc1,x,98.9,0.0,x,x,
O=C(c1ccc(Cl)cc1)c1cnc(-c2ccccc2)s1,1.4%,x,x,2.6,-38.8,
COCCn1c(=NC(=O)c2cc3ccccc3oc2=O)sc2cc(S(N)(=O)=O)ccc21,-0.9%,7.2,-2.0,8.8,-10.1,
COc1cccc(C=Nc2ccc(C)c(F)c2)c1O,6.7%,9.5,-2.0,1.2,-13.4,
Cc1ccc(Cl)cc1N1CCN(C(=O)CN(c2ccccc2)S(=O)(=O)N(C)C)CC1,9.9%,-15.4,-5.6,-2.0,x,
COc1cc2c(cc1OC)C(c1cccs1)N(C(=O)c1cccc(S(=O)(=O)N(C)C)c1)CC2 (centres undefined),0.7%,-6.0,7.1,x,x,
CCCCNC(=O)c1ccccc1NC(=O)C1=C(C)OCCS1,x,-4.5,-0.8,x,x,
COc1ccc(NC(=O)/C(=C\c2ccc3c(c2)OCO3)NC(C)=O)cc1,x,-3.6,-3.6,4.4,-6.4,
O=C(CCn1c(=O)sc2ccccc21)NCc1ccccc1,-2.9%,5.3,0.5,-1.8,-44.9,Arbovirus inh repeat=1.6
COC(=O)c1scc(C#N)c1N/N=C(\C#N)S(=O)(=O)c1ccc(Cl)cc1,3.2%,31.8,28.1,x,x,
Cc1cccc([C@@H]2[C@@H]3C(=O)N(Cc4ccccc4)C(=O)[C@@H]3[C@]3(Cc4ccc(Cl)cc4)C(=O)N(c4cccc(Cl)c4)C(=O)N23)c1,x,-13.6,-0.9,x,x,
CCOC(=O)/C=C1\SCC(=O)N1CC(=O)NCc1ccc(OC)c(OC)c1,1.2%,-5.3,0.1,-4.1,x,
Cn1c(NN=O)nc2ccccc21,-3.7%,4.2,0.4,-31.2,x,
CC(C)c1ccc(NC(=O)C2CC3CCC2C3)cc1 (centres undefined),x,0.9,2.7,x,x,

# Quoted at random: five compounds from above
SMILES,Mtb growth,Mtb betalactam,RecA intein inh,Arbovirus inh,YopH inh,others
Cc1ccc(OP(N)(=O)Oc2ccc(C)cc2)cc1,4.0%,6.5,2.1,8.1,x,
CN(C)S(=O)(=O)c1ccc(C(=O)NCc2nnc(SCC(=O)Nc3ccc(F)cc3)n2-c2ccc(F)cc2)cc1,4.6%,6.5,0.6,2.3,-19.7,
CCCCCn1c(CN2CCN(c3cccc(Cl)c3)CC2)nc2c1c(=O)[nH]c(=O)n2C,30.7%,96.8,6.4,4.0,-7.2,
COc1cccc(C=Nc2ccc(C)c(F)c2)c1O,6.7%,9.5,-2.0,1.2,-13.4,
Cc1ccc(Cl)cc1N1CCN(C(=O)CN(c2ccccc2)S(=O)(=O)N(C)C)CC1,9.9%,-15.4,-5.6,-2.0,x,

# Later entries:
SMILES,Mtb growth,Mtb betalactam,RecA intein inh,Arbovirus inh,YopH inh,others
O=C(Nc1cccc(S(=O)(=O)C(F)F)c1)c1ccc(S(=O)(=O)N2CCOCC2)cc1,-0.7%,-6.0,0.0,0.5,-0.5,
CC(C)(C)c1ccc(C(=O)NCC(=O)N/N=C/c2ccccc2OCC(=O)O)cc1,-4.3%,-0.5,-3.1,-2.4,x,
COc1ccc(CCNC(=O)c2cnn(-c3ccc(C)c(C)c3)c2NC(=O)c2ccco2)cc1OC,-2.5%,-0.5,0.4,-3.0,-21.9,
COc1ccc(/C=C/CN2CCN(Cc3ccccc3)C(CCO)C2)cc1 (centres undefined),1.1%,8.6,4.1,-2.0,x,
OC(c1ccccc1)(c1ccccc1)C1CCNCC1,78.7%,-4.0,-2.1,8.2,3.2,
Cc1nc2ccc(NC(=O)c3ccc(S(=O)(=O)N(C)c4ccccc4)cc3)cc2s1,u,91.3,-0.1,-17.2,-45.5,
COc1ccc(CCNC(=O)C/C(C)=N/NC(=O)C23CC4CC(CC(C4)C2)C3)cc1OC,17.5%,4.7,4.2,-8.7,-29.9,
CCOc1ccc(/C=N/N(C)c2ccccc2)cc1OC,33.5%,92.1,-0.4,-2.1,10.9,
COc1ccc(/C=C(/NC(=O)c2ccccc2)C(=O)NC2CCS(=O)(=O)C2)cc1 (centres undefined),-0.8%,-0.6,-1.5,7.7,-9.1,
O=[N+]([O-])c1cc(C(F)(F)F)ccc1Oc1cccnc1[N+](=O)[O-],1.54µM*,99.7,-0.6,-2.2,-16.1,
CCCCNc1c(-c2ccc(SC(C)CC)c(OC)c2)nc2ccc(C)cn12 (centres undefined),x,99.6,-39.2,x,x,
COC(=O)C(CC(=O)c1ccccc1)CC(=O)c1ccccc1,x,-3.4,4.2,x,x,
O=C(CCl)NC(=O)NC12CC3CC(CC(C3)C1)C2,-1.9%,100.2,58.7*,2.6,-29.5,
CCn1c(=O)c2cc(C(=O)N3CCCC3)sc2c2ccccc21,x,x,0.9,4.7,x,Arbovirus inh repeat=3.3
CCCCCSc1cc(OC)c(CCNC)cc1OC,-2.3%,-6.0,-3.3,-28.3,-19.4,
C/C(=N/NC(=O)C1COc2ccccc2O1)c1ccco1 (centres undefined),-3.9%,-2.9,-2.2,-7.5,-6.0,
Cc1c(C)c(C)c(CN2CCSCC2)c(C)c1C,-10.5%,-0.7,0.5,x,x,
COc1ccccc1NC(=O)CCc1nc2ccccc2s1,4.2%,3.9,4.8,1.1,x,
CC1(C)CC(=O)C(C=NCCCn2ccnc2)=C(O)C1,-6.3%,u,0.1,-0.9,-33.3,
Cc1ccc(N2C(=O)/C(=C/c3ccc(CN(CCC#N)S(C)(=O)=O)o3)C(=O)NC2=S)cc1C,-3.5%,-3.4,-3.8,8.5,-35.8,
NC(=S)n1[nH]c(-c2ccc([N+](=O)[O-])cc2)c(N=Nc2ccc(O)cc2)c1=O,x,-3.2,-1.8,-19.7,-19.1,
O=C(N/N=C/c1sc(N2CCOCC2)nc1-c1ccccc1)c1cccc(S(=O)(=O)N2CCOCC2)c1,1.2%,-4.7,-20.3,x,x,
O=C(COC(=O)c1cncc(Br)c1)NC1CC1,-12.1%,3.6,-1.6,9.4,-33.1,
CC1CCc2c(sc(/N=C/N(C)C)c2C#N)C1 (centres undefined),1.4%,-0.7,4.0,19.9,x,
O=C(Nc1ccc(C(=O)NCc2ccccc2)cc1)C1=CSCCO1,x,7.2,-6.0,x,x,

# Brought forward from above: 3 compounds; new compounds follow.
SMILES,Mtb growth,Mtb betalactam,RecA intein inh,Arbovirus inh,YopH inh,others
O=C(COC(=O)c1cncc(Br)c1)NC1CC1,-12.1%,3.6,-1.6,9.4,-33.1,
CC1CCc2c(sc(/N=C/N(C)C)c2C#N)C1 (centres undefined),1.4%,-0.7,4.0,19.9,x,
O=C(Nc1ccc(C(=O)NCc2ccccc2)cc1)C1=CSCCO1,x,7.2,-6.0,x,x,
Cc1ccc(N=C2c3ccccc3C(=O)C2[N+](=O)[O-])cc1C (centres undefined),12.1%,31.7,-0.3,-1.0,x,
Cc1ccc(C)c2[nH]c(=O)c(CN(CC3CCCO3)C(=O)NC3CCCCC3)cc12 (centres undefined),-1.3%,0.9,-1.4,0.1,6.0,
CCCCOC(=O)c1ccc(NC(=O)Nc2ccc(OC)c(OC)c2)cc1,7.1%,44.0,7.1,15.2,-18.3,
O=C(Nn1cnc2ccccc2c1=O)c1c(F)cccc1F,x,5.8,-2.0,x,x,
Cc1scc(C(=O)NNC(=S)NCC2CCCO2)c1C (centres undefined),-1.4%,-1.7,-0.7,4.4,21.6,
COCCCNC(=S)NNC(=S)Nc1ccc(OC)cc1,4.1%,2.9,-3.9,x,x,
CC1CN(CCC(=O)Nc2ccc3c(c2)CCC3)CC(C)O1 (centres undefined),-6.0%,-0.2,0.0,-2.9,-52.5,Arbovirus inh repeat=-2.9
CC1(C)C2([N+](=O)[O-])CN3CC1([N+](=O)[O-])CN(C2)C3c1ccccc1 (centres undefined),-17.0%,0.2,-0.7,5.4,-27.8,
Cc1ccc(-c2ccc(SCC(=O)c3ccccc3)nn2)cc1,-0.7%,2.9,-1.4,-23.7,-18.6,

# An excerpt; the hit share may differ from the screen's.
